BJeLR lethal: kills HRASV12-expressing BJeLR cells; BJeLR (HRASV12) viability, CellTiter-Glo ATP luminescence, 48 h; reference of the scale not given here; inhibition, % (no concentration beside the values); 300,000 tested, 0.17% active;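 active = replicate mean above 50%; inconclusive = above 50% but judged a plate artefact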;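 note: 50 nL library stock added to about 25 µL; numbers are from one replicate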
Mtb hypoxia inh: reduces hypoxia-regulated biosensor signal in M. tuberculosis. M. tuberculosis hypoxia-regulated fluorescent reporter, fluorescence. fluorescence inhibition, % (concentration not given with the values). 300,000 tested, 0.1% active. AID 1159583;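 active = 35 to 45% if threefold the growth effect, above 45% if 1.5-fold the growth effect; inactive = the rest, general growth blockers included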;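 note: wells of about 50 µL received 100 nL stock; 0% = vehicle wells and 100% = reference inhibitor wells; whole bacteria with a GFP reporter of the hypoxia response; strong numbers were not always called active; many hits fall short of the cut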
Sa ugtP lethal: kills S. aureus RN4220 lacking UgtP; S. aureus RN4220 ugtP deletion, OD600 growth, 16 h; some inactives read as strong as hits; growth inhibition, % (concentration not given with the values); 330,000 tested, 0.54% active; AID 1259309;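 active = z-score under -3 and OD600 up to 0.15 on both plates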;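 note: plate controls were untreated wells for no effect and antibiotic for full effect; wells of about 80 µL received 100 nL stock; the first replicate is given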
Autofluor counter: flagged as autofluorescent in microsphere protease counterscreen. compound autofluorescence counterscreen, microsphere flow cytometry; hits give high values. fluorescence intensity (no concentration beside the values). 360,000 tested, 3.1% active;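 active = at least 3 SD above the mean of all compounds, about 16000 in these data; inconclusive = too few beads counted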;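 note: 100 nL of 1 mM stock went into each well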
PrP 5UTR inh: inhibition of PrP 5' UTR reporter expression; cell-based PrP 5' UTR mRNA reporter, plate reader; inhibition, % (no concentration beside the values); 340,000 tested, 0.35% active; AID 488862;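 active = every replicate at 50% or more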;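 note: 0 = median of the neutral control wells; tested in H4 reporter cells; numbers are from one replicate; inactives centre near -14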
Sa RN4220 lethal: kills Staphylococcus aureus RN4220; S. aureus RN4220 growth, OD600, 16 h; 330,000 tested, 0.33% active; inhibition, % (no concentration beside the values);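 active = z-score of -3 or lower and OD600 up to 0.18 on both plates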;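 note: plate controls were untreated cells for no effect and reference antibiotic for full effect; stock transfer was 100 nL into about 80 µL; one replicate is shown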
Mtb hypoxia inh growth: also measured in Mtb hypoxia inh; calls as there; growth inhibition, %; measured here: M. tuberculosis growth (absorbance);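 0% = vehicle and 100% = reference antibiotic; read after six days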
Numbers without * were called inactive; ? = inconclusive; nt = no result given.

SMILES	BJeLR lethal	Mtb hypoxia inh	Mtb hypoxia inh growth	Sa ugtP lethal	Autofluor counter	PrP 5UTR inh	Sa RN4220 lethal
Cn1ncc([N+](=O)[O-])c1C(=O)Nc1nc2ccccc2n1CCN1CCCCC1	1	11	6	-3	3043	-11	-12
CC1(C)CC(=O)C=C(Nc2ccc(OCC(F)(F)C(F)F)cc2)C1	-1	nt	nt	-2	4151	1	0.1
CCC1CCCCN1C(=O)COC(=O)c1cc2ccccc2cc1O (stereo not drawn)	-2	1	13	-10	?	-19	-2.2
C=CCn1c(SCc2c(Cl)cccc2Cl)nnc1-c1cccnc1	-7	4	17	-9	9287	-11	-0.2
Oc1cccc2ccc(/C=C/c3ccccc3Cl)nc12	45	11	8	91*	3849	-24	83
COc1ccccc1C(=O)C1CCCN(C(=O)C2=CC(=O)CC(C)(C)O2)C1 (stereo not drawn)	-1	6	8	2	5287	-9	3.1
NC1=NS(=O)(=O)NC1c1ccc(Cl)cc1 (stereo not drawn)	-9	4	5	9	nt	-13	5.0
CC(C)Cn1c(C(C)NC(=O)Cc2ccccc2)nc2ccccc21 (stereo not drawn)	12	2	8	1	5771	0	-2.5
Cc1ccc(-n2nc(C)cc2NC(=O)c2ccc(C)s2)cc1	-1	3	9	3	11088	-18	-1.5
COc1ccc(S(=O)(=O)N2CCCC2CNC(=O)C(=O)NCc2cccs2)cc1 (stereo not drawn)	-1	-4	-4	6	5317	4	2.0
Cc1ccc(C)c(N2N=C(C(=O)O)CCC2=O)c1	-8	-15	-3	8	4496	-26	4.7
CC/C(=N\OC(=O)c1ccc(OC(C)C)cc1)c1ccc(C)cc1	7	nt	nt	nt	4876	-23	nt
O=C(NCCCCCCNC(=O)OCc1ccccc1)OCc1ccccc1	nt	8	4	1	2835	-12	1.6
Cc1onc(-c2ccccc2Cl)c1C(N)=O	0	nt	nt	7	2498	-16	-2.4
N/C(=N\c1nc2ccccc2o1)NC(=O)c1ccccc1F	2	nt	nt	29	2222	-77	5.9
Cc1ccc(OCCCC(=O)NC2CCCCC2)cc1	-10	4	12	-4	4110	4	-1.0
COc1ccc(CNC(=O)COC(=O)c2ccc(S(=O)(=O)N3CCOCC3)cc2)cc1	nt	-6	5	-3	3384	-18	-1.9
Cc1cc(NC(=O)c2cc(-c3ccc(Br)cc3)on2)no1	2	-3	-1	-2	4293	-19	2.5
COCCNC(=O)Nc1ccc2nc(C)sc2c1	-1	-5	-7	-1	8723	-21	-3.0
COC(=O)c1ccc2ccn(CC(=O)NC(C)C)c2c1	0	0	-4	-2	10398	-12	3.0
CCOC(=O)c1cccc(NC(=O)c2ccc3c(c2)C(=O)N(CC2CCCO2)C3=O)c1 (stereo not drawn)	-1	9	-4	10	5500	-4	-1.0
COc1cc(SC)ccc1C(=O)N1CCN(c2ccc(O)cc2)CC1	-6	1	8	13	4119	-8	3.0
COc1ccc(CNC(=O)COC(=O)c2n[nH]c3ccccc23)cc1OC	1	-11	-9	-7	?	15	0.3
Cc1nn(CC(=O)N/N=C/c2cccs2)c(C)c1[N+](=O)[O-]	4	nt	nt	nt	3858	-1	nt
CCOC(=O)C1CCN(C(=O)COC(=O)C23CC4CC(CC(C4)C2)C3)CC1	nt	13	1	4	nt	-32	5.8
New compounds follow:
SMILES	BJeLR lethal	Mtb hypoxia inh	Mtb hypoxia inh growth	Sa ugtP lethal	Autofluor counter	PrP 5UTR inh	Sa RN4220 lethal
Cc1ccc(C(=O)OCC(=O)Nc2ccccc2)cc1NC(=O)c1ccco1	-2	2	-7	6	17209*	-7	-0.4
CCCc1nnc(NC(=O)CCC(=O)N2CCN(S(=O)(=O)c3ccc(F)cc3)CC2)s1	0	15	8	5	4087	-15	5.9
COc1ccc(C)cc1NC(=O)C1CCN(C(=O)c2ccc(C(C)(C)C)cc2)CC1	0	5	2	10	3905	-28	0.6
COc1ccccc1NC(=O)c1ccc(-c2ccccc2F)o1	-3	4	7	-6	9106	-58	10
CCn1cc(CN2CCC(n3nccc3NC(=O)c3cccc(F)c3)CC2)cn1	0	-2	-8	3	4467	-6	0.6
CCOc1ccc(S(=O)(=O)N2CCN(C(=O)c3ccncc3)CC2)cc1	0	-2	-6	7	4081	-4	1.3
Cc1ccc2nc(Nc3ccccc3)c(C=O)c(=O)n2c1	6	16	11	-2	3421	-13	6.8
Nn1c(SCC(=O)Nc2ccc(S(=O)(=O)N3CCCC3)cc2)nnc1C(F)(F)F	-3	nt	nt	3	4554	-38	-1.1
c1ccc(-n2cnc3ccccc32)nc1	9	13	-1	2	3316	-20	0.5
CC(/C=C/c1ccc(C)o1)=C\C(=O)O	-1	nt	nt	nt	9737	-16	nt
O=[N+]([O-])c1cccc(NC(=S)N2CCN(S(=O)(=O)c3ccccc3)CC2)c1	5	2	0	5	6474	-24	0.8
Cc1ccccc1-c1nn(-c2ccc(F)cc2F)cc1CNCCCN(C)C	4	18	13	-7	3417	-16	-3.2
CCN(CC)c1ccc(N=Cc2cc(Br)ccc2O)cc1	-4	6	-4	8	2051	-16	2.3
O=C(CN1C(=O)NC2(CCCC2)C1=O)Nc1ccc(F)cc1	-4	19	10	3	9033	-3	3.5
CCC(C)[C@H](NC(=O)C1CCN(C(=O)[C@H](Cc2ccccc2)NC(=O)OC(C)(C)C)CC1)C(=O)O (stereo partly drawn)	-1	11	16	1	3049	nt	2.0
CCOC(=O)c1c(C)[nH]c(N=Nc2ccccc2)c1C	2	11	15	49	3466	-119	1.7
CCn1c(=O)cc(OCC(=O)Nc2nc(C)cs2)c2ccccc21	-2	5	1	14	5137	-19	46
COc1ccc(NC(=O)c2cccc(N3C(=O)C4CCC(C)CC4C3=O)c2)c(OC)c1 (stereo not drawn)	2	3	-4	2	3234	-13	1.6
NN=C1c2ccccc2-c2ccc(N)cc21	nt	11	5	-1	3157	-43	1.9
Cc1[nH]c2ccccc2c1C=NNC(=O)c1ccccc1	nt	8	3	-5	nt	nt	4.5
CCN(CC)C(=O)c1[nH]cnc1C(=O)N[C@@H](C)C(=O)OCc1ccccc1	7	nt	nt	nt	4022	-8	nt
CCc1ccc(-c2cc3c(=O)n(CC(=O)NCCCN4CCN(CC)CC4)nc(C)n3n2)cc1	8	5	1	4	5019	-26	-0.4
COc1ccc(NC(=O)CN2C(=O)COc3ccc(S(=O)(=O)N4CCCCCC4)cc32)cc1	3	5	13	7	5635	-1	-1.8
NC(=O)C(c1ccccc1)c1ncc(C(F)(F)F)cc1Cl (stereo not drawn)	-2	6	6	14	4458	-7	7.3
O=C(c1cccc(-n2cnnn2)c1)N1CC=C(c2ccccc2)CC1	-4	4	5	3	3420	-10	0.9

Single records, from the list above. Screens in order: BJeLR lethal, Mtb hypoxia inh, Mtb hypoxia inh growth, Sa ugtP lethal, Autofluor counter, PrP 5UTR inh, Sa RN4220 lethal
`COc1ccccc1NC(=O)c1ccc(-c2ccccc2F)o1` across the screens: -3, 4, 7, -6, 9106, -58, 10
`O=C(CN1C(=O)NC2(CCCC2)C1=O)Nc1ccc(F)cc1` across the screens: -4, 19, 10, 3, 9033, -3, 3.5
`CCOc1ccc(S(=O)(=O)N2CCN(C(=O)c3ccncc3)CC2)cc1` across the screens: 0, -2, -6, 7, 4081, -4, 1.3
`CCOC(=O)c1c(C)[nH]c(N=Nc2ccccc2)c1C` across the screens: 2, 11, 15, 49, 3466, -119, 1.7

Looked up above:
Reading for CCC(C)[C@H](NC(=O)C1CCN(C(=O)[C@H](Cc2ccccc2)NC(=O)OC(C)(C)C)CC1)C(=O)O (stereo partly drawn) in Sa ugtP lethal: 1
Reading for COC(=O)c1ccc2ccn(CC(=O)NC(C)C)c2c1 in Autofluor counter: 10398
Reading for O=C(CN1C(=O)NC2(CCCC2)C1=O)Nc1ccc(F)cc1 in Mtb hypoxia inh: 19

Quoted at random: two entries already listed, in no set order.
SMILES	BJeLR lethal	Mtb hypoxia inh	Mtb hypoxia inh growth	Sa ugtP lethal	Autofluor counter	PrP 5UTR inh	Sa RN4220 lethal
CCCc1nnc(NC(=O)CCC(=O)N2CCN(S(=O)(=O)c3ccc(F)cc3)CC2)s1	0	15	8	5	4087	-15	5.9
Cc1ccccc1-c1nn(-c2ccc(F)cc2F)cc1CNCCCN(C)C	4	18	13	-7	3417	-16	-3.2

An excerpt from above in order of heavy-atom count, lowest first.
SMILES	BJeLR lethal	Mtb hypoxia inh	Mtb hypoxia inh growth	Sa ugtP lethal	Autofluor counter	PrP 5UTR inh	Sa RN4220 lethal
CCOC(=O)c1c(C)[nH]c(N=Nc2ccccc2)c1C	2	11	15	49	3466	-119	1.7
N/C(=N\c1nc2ccccc2o1)NC(=O)c1ccccc1F	2	nt	nt	29	2222	-77	5.9
O=[N+]([O-])c1cccc(NC(=S)N2CCN(S(=O)(=O)c3ccccc3)CC2)c1	5	2	0	5	6474	-24	0.8
CCC(C)[C@H](NC(=O)C1CCN(C(=O)[C@H](Cc2ccccc2)NC(=O)OC(C)(C)C)CC1)C(=O)O (stereo partly drawn)	-1	11	16	1	3049	nt	2.0

Other compounds follow:
SMILES	BJeLR lethal	Mtb hypoxia inh	Mtb hypoxia inh growth	Sa ugtP lethal	Autofluor counter	PrP 5UTR inh	Sa RN4220 lethal
COC(=O)c1ccccc1Nc1ccccc1	-3	18	6	22	4349	-6	14
CCCCCCCCCCCCN1C(CC(=O)O)c2cc(F)ccc2S1(=O)=O (stereo not drawn)	nt	4	6	21	nt	nt	6.9
Cc1cn([C@@H](CCCCN)C(=O)NCCCCCCCCCCC(=O)N2CCNCC2)nn1	14	nt	nt	nt	3771	-27	nt
O=C(NC1CCN(Cc2ccc(Cl)cc2Cl)CC1)c1ccccc1	2	6	7	12	4128	-20	1.0
Cc1ccc(CNC(=O)Cn2nnc(C(=O)Nc3ccc(Br)cc3)c2N)cc1	3	3	-3	8	5314	-1	3.6
Cc1nc2ccccc2cc1C(=O)NCc1ccc(F)cc1	12	19	11	12	4666	-97	3.1
Cc1cccc(C)c1OCC(=O)NNC(=O)CCCn1c(=O)oc2ccccc21	nt	4	5	-2	6154	-29	4.3
CC(C)c1ccc(S(=O)(=O)N2CCN(C(=O)C3CCCC3)CC2)cc1	-11	17	1	11	3857	-12	2.2
Cc1ccc(CSCC(=O)N2CCN(c3ccccc3)CC2)cc1	-3	15	6	-3	1985	-17	11
Nc1nc(=S)c2[nH]c(=S)[nH]c2[nH]1	nt	16	12	2	3409	-15	1.0
CCOc1ccccc1NC(=O)c1cc(S(=O)(=O)N2CCN(CC)CC2)ccc1Cl	-4	4	9	6	6375	-14	8.0
COCCCn1c(SCC(=O)NC2CCCC2)nnc1-c1ccco1	nt	0	4	0	20908*	-43	7.0
CCN(CC)C(=O)C1(P(=O)(c2ccccc2)c2ccccc2)CCC1	2	4	8	7	3589	nt	3.6
Cc1ccc(-n2c(Cn3ncc4ccccc4c3=O)n[nH]c2=S)cc1	-3	1	5	2	nt	-4	4.7
C[C@]12CCC3C(CC[C@H]4C[C@H](O)CC[C@]34C)C1C[C@@H](O)[C@H]2O (stereo partly drawn)	nt	0	7	0	3585	nt	5.0
O=C(NC(=S)NC(=O)c1ccccc1F)c1ccccc1F	7	0	1	-4	9203	-13	-5.6
CC1(C)NC(=O)N(CC(O)CN2C(=O)CCC2=O)C1=O (stereo not drawn)	-2	2	-3	0	10574	-13	-0.3
COc1ccc(C)cc1S(=O)(=O)NCc1cccs1	1	2	-1	7	6150	-17	5.6
CCOC(=O)N1CCN(C(=O)c2ccc(CSc3ccc(Cl)cc3)cc2)CC1	-6	2	-1	-17	4755	-14	17
O=C1N(C2CCCC2)C[C@@H]2C[C@@H](c3cccn3-c3ccccn3)N3CCC[C@@]123	-6	17	10	4	2931	-23	2.9
Cn1c(=O)[nH]c2cc3ccccc3cc21	11	1	2	-4	19393*	12	3.6
CN(C)CCOCCSc1ccc(Cl)cc1	12	5	-2	5	23961*	-16	3.4
COCc1cc(OC(=O)N(C)C)nc2c1c(C)nn2C	-4	-4	9	8	5881	-20	3.6
O=C(/C=C/c1ccco1)N1CCN(S(=O)(=O)c2cccc([N+](=O)[O-])c2)CC1	nt	10	13	6	6242	-15	-2.4
Cc1ccnc(NC(=O)CCC(=O)N(CC(=O)NCCc2ccccc2)Cc2cccs2)c1	-6	12	9	12	4373	-14	4.6
O=S1(=O)C=C(SCc2ccc(F)cc2)Nc2ccccc21	5	17	17	6	4002	-2	0.2
Cn1cccc1Cc1nnc(SCC(=O)Nc2cccc(F)c2)n1-c1ccc(F)cc1	-6	nt	nt	4	4673	-13	6.6
COc1ccccc1NC(=O)Cc1nnc(SCC(=O)Nc2ccccc2F)n1C	2	-4	-1	-1	4779	10	4.1

Bioassay records deposited in PubChem BioAssay by several laboratories.
